Bioassay records deposited in PubChem by several laboratories.
ugtP null kill: compounds lethal to S. aureus RN4220 ugtP deletion mutant; OD600 growth, 16 h; some inactives read as strong as hits; growth inhibition, % (test concentration not listed); hit rate 0.54% among 330,000;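 active means z-score under -3 and OD600 up to 0.15 on both plates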;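 further: plate controls were untreated wells for no effect and antibiotic for full effect; wells of about 80 µL received 100 nL stock; the first replicate is given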
RN4220 kill: kills Staphylococcus aureus RN4220. inhibition, % (concentration not given with the values). S. aureus RN4220 growth, OD600, 16 h. hit rate 0.33% among 330,000. AID 1259311;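 active means z-score of -3 or lower and OD600 up to 0.18 on both plates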;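 further: plate controls were untreated cells for no effect and reference antibiotic for full effect; stock transfer was 100 nL into about 80 µL; one replicate is shown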
BJeLR viability: kills HRASV12-expressing BJeLR cells; BJeLR (HRASV12) viability, CellTiter-Glo ATP luminescence, 48 h; reference of the scale not given here; inhibition, % (concentration not given with the values); hit rate 0.17% among 300,000;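 active means replicate mean above 50%; inconclusive means above 50% but judged a plate artefact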;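 further: 50 nL library stock added to about 25 µL; numbers are from one replicate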
Mtb hypoxia rep: inhibitors of hypoxia-regulated fluorescent reporter in Mycobacterium tuberculosis. AID 1159583. M. tuberculosis hypoxia-regulated fluorescent reporter, fluorescence. hit rate 0.1% among 300,000. fluorescence inhibition, % (test concentration not listed);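 active means 35 to 45% if threefold the growth effect, above 45% if 1.5-fold the growth effect; inactive means the rest, general growth blockers included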;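 further: wells of about 50 µL received 100 nL stock; 0% = vehicle wells and 100% = reference inhibitor wells; whole bacteria with a GFP reporter of the hypoxia response; strong numbers were not always called active; many hits fall short of the cut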
PrP UTR inh: inhibition of PrP 5' UTR reporter expression; cell-based PrP 5' UTR mRNA reporter, plate reader; inhibition, % (concentration not given with the values); hit rate 0.35% among 340,000; AID 488862;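 active means every replicate at 50% or more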;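 further: 0 = median of the neutral control wells; tested in H4 reporter cells; numbers are from one replicate; inactives centre near -14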
Bead autofluor: counter-screen for toxin protease inhibitors: compound fluorescence; compound autofluorescence counterscreen, microsphere flow cytometry; stronger effect = higher value; fluorescence intensity (test concentration not listed); hit rate 3.1% among 360,000; AID 624483;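 active means at least 3 SD above the mean of all compounds, about 16000 in these data; inconclusive means too few beads counted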;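 further: 100 nL of 1 mM stock went into each well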
Mtb hypoxia rep growth: recorded beside Mtb hypoxia rep, whose call it bears; growth inhibition, %; measured here: M. tuberculosis growth (absorbance);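 0% = vehicle and 100% = reference antibiotic; read after six days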
Active calls of the source: *; ? = inconclusive; . = no result given.

SMILES	ugtP null kill	RN4220 kill	BJeLR viability	Mtb hypoxia rep	Mtb hypoxia rep growth	PrP UTR inh	Bead autofluor
Cc1ccccc1OCc1nc2ccccc2c(=O)n1N	8	-3.9	-6	.	.	-35	4967
CN1C(=O)C(Cc2ccc(OCc3ccccc3)cc2)C(=O)N(C)C1=O	1	3.7	-3	-5	16	-26	4054
Cc1ccc(C(=O)N2CCC(C(=O)NC3CCCC3)CC2)cc1	3	4.7	-7	3	-7	-12	5773
COc1ccc(CN2C(=O)c3cccnc3C2=O)cc1S(=O)(=O)N1CCOc2ccc(C)cc21	5	2.9	1	4	1	-14	5484
O=[N+]([O-])c1ccc(O)c(C=Nn2c(CO)nc3ccccc32)c1	74	81	.	4	14	.	.
CC(C)c1ccc(NC(=O)c2ccc(NC3=NC4CS(=O)(=O)CC4S3)cc2)cc1 (configuration not stated)	-4	-12	7	4	0	-8	5716
CCN(CC)C(=O)CSc1nc(O)cc(=O)n1-c1ccccc1OC	6	0.2	-4	7	0	-19	11101
CCCn1c(=O)c2ccccc2n2c(SCC(=O)/C(C#N)=C(\C)N)nnc12	-5	2.2	-5	2	7	-18	13037
CCOC(=O)N1CCN(C(=O)C(NS(=O)(=O)c2cccc3nsnc23)c2ccccc2)CC1 (configuration not stated)	11	6.4	1	-3	-1	-4	7030
Cc1ccsc1CN(C)C(=O)CCc1nnc(COc2ccccc2)o1	3	4.8	-3	14	5	-45	2651
CC(C)(C)NC(=O)CN(C(=O)CSc1nnc(COc2ccccc2)o1)c1cccc(F)c1	23	4.5	-7	2	-1	-28	8443
COc1ccc(CCNC(=O)c2sc(=S)n(C)c2N)cc1	6	2.4	-2	.	.	-20	4088
CCOc1ccc(Oc2cc(C)nc(SC)n2)nn1	6	0.8	-15	.	.	-7	3616
Cc1c(C(=O)NCc2ccc3c(c2)OCO3)sc2nc(-c3ccccc3)cn12	-15	1.7	2	5	8	-15	5793
CC(=O)OC(C(=O)NCc1ccco1)c1cccnc1 (configuration not stated)	1	0.0	-3	.	.	-3	4079
COc1ccccc1N1CCN(CCCCCCOc2ccc(F)cc2)CC1	-5	-5.3	-6	-11	12	-39	2418
CON=CC(c1ncc(C(F)(F)F)cc1Cl)S(=O)(=O)c1ccccc1 (configuration not stated)	-6	0.7	.	-13	-8	.	.
Cc1noc(C)c1COc1ccc(C(=O)Nc2ccccc2)cc1	6	4.3	10	16	12	-13	4441
COC(=O)c1ccc(NC(=O)Nc2ccccc2F)cc1	7	5.6	15	-5	2	-132	2133
Cc1nc2ccccc2c(=O)n1NC(=O)c1ccc(Cl)cc1	5	3.1	-5	8	-9	-19	3203
O=C(CC12CC3CC(CC(C3)C1)C2)NC(=S)Nc1ccc(CN2CCOCC2)cc1	11	3.4	0	6	12	-15	4353
COC(=O)c1ccc(CSc2nnc3sc4ccccc4n23)o1	-3	2.6	1	5	8	-2	3350
COc1ccc(NC(=O)CCc2nc3ccccc3c(=O)[nH]2)cc1S(=O)(=O)N1CCCCC1	12	3.5	.	1	0	-9	.
O=C(O)CCCN1C(=O)/C(=C/C=C/c2ccco2)SC1=S	4	7.0	21	23	3	-10	4030
COc1ccc(CC(=O)OCC(=O)NC2CCCC(C)C2C)cc1 (configuration not stated)	-1	1.9	.	9	4	-18	4112
O=C(N/C=N/OCc1ccc(Cl)cc1Cl)NOCc1c(Cl)cccc1Cl	.	.	1	.	.	-14	2841
CCOC(=O)CSC1=C(C#N)C(c2ccccc2OCC)C(C#N)C(=O)N1 (configuration not stated)	-1	5.0	-5	4	0	-19	7721
CCS(=O)(=O)N1CCC(C(=O)N2CCN(Cc3ccccc3)CC2)CC1	7	-1.0	5	15	-6	-12	3238
Cc1ccc(C)c(NC(=O)CN2C(=O)NC(CCc3ccccc3)C2=O)c1 (configuration not stated)	3	5.2	.	6	6	-30	3568
Oc1c(C=Nc2cccc3nsnc23)ccc2ccccc12	4	2.0	-13	5	7	.	.
O=C1C2C3CCC(O3)C2C(=O)N1c1cccc(O)c1 (configuration not stated)	6	-1.2	8	0	6	-13	4034
Cc1cccc(NC(=O)C(C)OC(=O)c2ccccc2NS(=O)(=O)c2cc(C)c(C)c([N+](=O)[O-])c2)c1 (configuration not stated)	-8	2.1	4	9	-7	-19	2152
NC(=NOCC(=O)Nc1ccccc1)c1nonc1N	1	0.9	.	9	1	.	.
Cc1ccnc(NS(=O)(=O)c2ccc(NC(=O)c3oc4ccccc4c3C)cc2)n1	0	-3.6	1	15	17	-4	?
Cc1nn(C)cc1/C=C1\CCC/C(=C\c2cn(C)nc2C)C1=O	0	0.6	4	.	.	-10	4288
Nc1nc(SCC(=O)Nc2ncc(Cl)cc2Cl)n[nH]1	0	5.4	.	6	4	-13	3726
CC1CCN(C(=O)c2ccc3c(c2)NC(=O)CN3)CC1	1	2.8	-1	2	12	.	.
COc1cc(C=NN2CCCCC2)cc(OC)c1O	4	2.3	.	-4	-3	.	.
COC(=O)C1=NN(C(=O)c2ccc(Br)cc2)C(O)(C(C)(C)C)C1 (configuration not stated)	15	1.4	.	6	11	-6	4260
Cc1cc(=O)[nH]c2[nH][nH]c(=O)c12	3	1.2	.	5	12	-15	3931

Compounds from the list above that contain a tert-butyl group:
SMILES	ugtP null kill	RN4220 kill	BJeLR viability	Mtb hypoxia rep	Mtb hypoxia rep growth	PrP UTR inh	Bead autofluor
CC(C)(C)NC(=O)CN(C(=O)CSc1nnc(COc2ccccc2)o1)c1cccc(F)c1	23	4.5	-7	2	-1	-28	8443
COC(=O)C1=NN(C(=O)c2ccc(Br)cc2)C(O)(C(C)(C)C)C1 (configuration not stated)	15	1.4	.	6	11	-6	4260

Later entries:
SMILES	ugtP null kill	RN4220 kill	BJeLR viability	Mtb hypoxia rep	Mtb hypoxia rep growth	PrP UTR inh	Bead autofluor
O=C(Nc1ccncc1)C1CCN(S(=O)(=O)c2ccc(Cl)c(C(F)(F)F)c2)CC1	-4	0.2	.	4	0	2	4069
COc1ccc(C(=O)Nc2ccc(O)cc2C(=O)O)cc1	12	7.6	2	-8	6	-11	3182
Cc1ncc(CO)c2c1Oc1nc(-c3ccccc3)nc(SCC(=O)N3CCOCC3)c1C2	1	4.9	-4	12	-2	2	4168
OCc1ccc(N=Nc2ccccc2)cc1	1	12	-18	5	2	-74	3855
O=C(C1Cc2ccccc2CN1S(=O)(=O)c1ccc(F)cc1)N1CCCCCC1 (configuration not stated)	0	2.2	2	8	2	-5	6280
COc1ccccc1NS(=O)(=O)c1cn(C)cn1	5	1.7	8	2	10	-2	5266
COc1ccc(C(=O)NCc2cccnc2)cc1S(=O)(=O)N1CCCc2ccccc21	4	1.4	-1	8	-2	-12	3351
NC(=O)C(c1ccccn1)c1ncc(C(F)(F)F)cc1Cl (configuration not stated)	6	2.8	6	4	-5	-3	3497
COc1ccc2c(-c3ccccc3)cc3nnnn3c2c1	9	19	-3	5	4	-8	9521
COc1ccc(-c2noc(N3CCC(C(=O)Nc4ccc(F)cc4)CC3)n2)cc1	-1	2.0	4	-6	-4	2	5093
O=C(CC1CC=CCCC(=O)OC(c2ccccc2)CNC1=O)NCCO (configuration not stated)	6	2.5	.	10	11	.	.
Fc1ccc(/C=N/n2c(C3CCCCC3)n[nH]c2=S)cc1	.	.	-3	.	.	-17	3936
O=C(N1CCN(CCO)CC1)N1c2ccccc2C=Cc2ccccc21	-1	5.8	0	.	.	-8	2393
COc1ccccc1C1C2=C(CCCC2=O)N(CC(=O)O)C2=C1C(=O)CCC2	.	.	-17	.	.	-4	4076
CN(C)c1ccc(P(=O)(Nc2cccc(C(F)(F)F)c2)N2CCOCC2)c(NC(=O)c2cccs2)c1 (configuration not stated)	-5	-5.9	0	-6	2	-19	2520
CCCCN(CC(=O)Nc1c(C)cccc1CC)C(=O)SCC	4	3.0	-3	-11	-8	3	2756
CNC(=O)N1c2ccccc2C=Cc2ccccc21	8	3.1	0	20	11	-8	3934
CC(=O)Nc1ccc(S(=O)(=O)N(C)CC(=O)Nc2ccccc2N2CCOCC2)cc1	-8	3.4	-5	.	.	-20	4669
O=C(Cn1cc(C(F)(F)F)cc(Cl)c1=O)NCCc1ccccc1	12	8.4	-25	-2	-2	-19	7861
COc1cc(OC)c(C(=O)OCC(=O)NCCC2=CCCCC2)cc1OC	8	0.7	1	7	0	-18	5129

17 compounds already listed, arranged by molar mass, largest number first.
SMILES	ugtP null kill	RN4220 kill	BJeLR viability	Mtb hypoxia rep	Mtb hypoxia rep growth	PrP UTR inh	Bead autofluor
CN(C)c1ccc(P(=O)(Nc2cccc(C(F)(F)F)c2)N2CCOCC2)c(NC(=O)c2cccs2)c1 (configuration not stated)	-5	-5.9	0	-6	2	-19	2520
Cc1ncc(CO)c2c1Oc1nc(-c3ccccc3)nc(SCC(=O)N3CCOCC3)c1C2	1	4.9	-4	12	-2	2	4168
O=C(Nc1ccncc1)C1CCN(S(=O)(=O)c2ccc(Cl)c(C(F)(F)F)c2)CC1	-4	0.2	.	4	0	2	4069
CC(=O)Nc1ccc(S(=O)(=O)N(C)CC(=O)Nc2ccccc2N2CCOCC2)cc1	-8	3.4	-5	.	.	-20	4669
COc1ccc(C(=O)NCc2cccnc2)cc1S(=O)(=O)N1CCCc2ccccc21	4	1.4	-1	8	-2	-12	3351
O=C(C1Cc2ccccc2CN1S(=O)(=O)c1ccc(F)cc1)N1CCCCCC1 (configuration not stated)	0	2.2	2	8	2	-5	6280
COc1ccc(-c2noc(N3CCC(C(=O)Nc4ccc(F)cc4)CC3)n2)cc1	-1	2.0	4	-6	-4	2	5093
COc1cc(OC)c(C(=O)OCC(=O)NCCC2=CCCCC2)cc1OC	8	0.7	1	7	0	-18	5129
O=C(CC1CC=CCCC(=O)OC(c2ccccc2)CNC1=O)NCCO (configuration not stated)	6	2.5	.	10	11	.	.
O=C(Cn1cc(C(F)(F)F)cc(Cl)c1=O)NCCc1ccccc1	12	8.4	-25	-2	-2	-19	7861
O=C(N1CCN(CCO)CC1)N1c2ccccc2C=Cc2ccccc21	-1	5.8	0	.	.	-8	2393
CCCCN(CC(=O)Nc1c(C)cccc1CC)C(=O)SCC	4	3.0	-3	-11	-8	3	2756
NC(=O)C(c1ccccn1)c1ncc(C(F)(F)F)cc1Cl (configuration not stated)	6	2.8	6	4	-5	-3	3497
Fc1ccc(/C=N/n2c(C3CCCCC3)n[nH]c2=S)cc1	.	.	-3	.	.	-17	3936
COc1ccc(C(=O)Nc2ccc(O)cc2C(=O)O)cc1	12	7.6	2	-8	6	-11	3182
COc1ccc2c(-c3ccccc3)cc3nnnn3c2c1	9	19	-3	5	4	-8	9521
OCc1ccc(N=Nc2ccccc2)cc1	1	12	-18	5	2	-74	3855

(list continues)
SMILES	ugtP null kill	RN4220 kill	BJeLR viability	Mtb hypoxia rep	Mtb hypoxia rep growth	PrP UTR inh	Bead autofluor
Cc1c(NS(=O)(=O)c2ccc(Cl)c(C(=O)OCC(=O)NCc3ccco3)c2)c(=O)n(-c2ccccc2)n1C	3	3.0	-1	7	8	-15	4353
COc1ccc(C(OCC(O)CNCCc2ccc(S(N)(=O)=O)cc2)c2ccc(OC)cc2)cc1 (configuration not stated)	3	2.8	-3	0	-2	-29	4251
COc1ccc(S(=O)(=O)N(C)CC(=O)NCCC2=CCCCC2)cc1C	12	6.4	-7	-1	3	-16	9940
O=C1NC(c2ccccc2)=C(c2nc3ccccc3s2)C(c2ccccc2)N1 (configuration not stated)	-21	-3.1	1	-7	-2	-13	12074
CC(C)c1nc2n[nH]c(N)c2c2c1CSC(C)(C)C2	12	8.5	5	.	.	-16	2907
O=C(Nc1ccccc1)N1CCC(C(=O)N2CCCC(C(F)(F)F)C2)CC1 (configuration not stated)	-3	-3.5	-16	-1	7	-4	5615
COc1cc2c(cc1OC)-c1cc(N3CCCc4ccccc43)nc(=O)n1CC2	1	10	-3	4	1	-21	7691
Cc1ccc(S(=O)(=O)NC(=O)Nc2ccccc2F)cc1	-6	-3.1	.	-9	7	10	10549
Cc1c(C(=O)O)sc(S(=O)(=O)N2CCN(C(=O)Cc3ccccc3Cl)CC2)c1C(=O)O	3	8.6	.	8	7	-20	3838
